High-throughput results (PubChem BioAssay)
Vaccinia inh: Vaccinia orthopox stage-specific inhibition; Vaccinia-infected cells, mCherry/Venus stage reporter fluorescence; active compounds read low; some inactives read as strong as hits; activity change (mCherry), % (test concentration not listed); 89,000 compounds, 0.01% hits; AID 1053133;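 active means mCherry past -33% and 40 or more points under the early reporter, replicates agreeing; inconclusive means past -33% without that gap or agreement; tested in A549 cells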;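 further: scaled between vehicle wells and reference inhibitor wells; 23 nL library stock went into each well; one replicate is shown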
Vaccinia inh Venus: further read-out of Vaccinia inh, marked with its call; activity change (Venus), %; measured here: Venus reporter, other viral stage;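 negative = less Venus signal; first of two replicates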
* marks the source's active call; other numbers are inactive results; ? = inconclusive; nt = no result given; & = joins results of further samples. An excerpt, so the mix of outcomes need not match the whole.

SMILES	Vaccinia inh	Vaccinia inh Venus
CCCNC(=O)N1C[C@@H](C)[C@H](OC)CN(C)C(=O)c2cc(NC(=O)CCC)ccc2OC[C@@H]1C	-11	-5
C[C@@H]1CN([C@H](C)CO)C(=O)c2cc(C#CC3CC3)cnc2O[C@@H]1CN(C)Cc1cccc(C(=O)O)c1	16	11
C[C@@H]1CN([C@H](C)CO)S(=O)(=O)c2ccc(C#CC3(O)CCCC3)cc2O[C@@H]1CN(C)C(=O)Nc1ccccc1	-1	-3
C[C@H]1CCCCO[C@@H](CN(C)C(=O)Nc2ccccc2)[C@@H](C)CN([C@@H](C)CO)C(=O)c2cc(NS(C)(=O)=O)ccc2O1	23	11
CCCNC(=O)N1CC2(CN(C(=O)Nc3cccc(F)c3)C2)c2c(n(C)c3cc(OC)ccc23)[C@@H]1CO	-32	-33
COc1ccc(NC(=O)N(C)C[C@H]2OCCCC[C@H](C)Oc3ccc(NC(=O)Nc4c(C)noc4C)cc3C(=O)N([C@H](C)CO)C[C@@H]2C)cc1	15	6
C[C@H](CO)N1C[C@H](C)[C@H](CN(C)Cc2cccc(F)c2)Oc2ncc(Br)cc2C1=O	3&8	-5&3
Cc1ccc(S(=O)(=O)Nc2ccc3c(c2)C(=O)N([C@@H](C)CO)C[C@@H](C)[C@@H](CN(C)C(=O)Nc2ccc4c(c2)OCO4)OCCCC[C@@H](C)O3)cc1	-13	-9
C[C@H](CO)N1C[C@H](C)[C@H](CN(C)C(=O)Nc2ccc(C(F)(F)F)cc2)OCCCC[C@H](C)Oc2ccc(NC(=O)Nc3ccccc3)cc2C1=O	-1	1
Cc1noc(C)c1NC(=O)Nc1ccc2c(c1)C(=O)N(C)[C@@H]1CC[C@@H](CC(=O)N(C)C)O[C@H]1CO2	13	11
O=C(c1cccnc1)N1CC2(C1)[C@H](c1ccccc1)[C@@H](CO)N2C(=O)C1CCC1	-4	2
COc1ccc(CN(C)C[C@@H]2OCc3cn(nn3)CCCC(=O)N([C@H](C)CO)C[C@H]2C)cc1	4	18
CC(C)CC#Cc1ccc2c(c1)O[C@H](CN(C)C(=O)c1ccncc1)[C@@H](C)CN([C@H](C)CO)S2(=O)=O	-16	-16
CCCNC(=O)N1[C@H](CO)[C@@H](c2ccccc2)[C@@H]1C#N	1	2
C[C@@H]1CCCCO[C@H](CN(C)Cc2ccc(C(=O)O)cc2)[C@H](C)CN([C@H](C)CO)C(=O)c2cc(N(C)C)ccc2O1	3	-3
C[C@@H]1CCCCO[C@@H](CN(C)C(=O)NC2CCCCC2)[C@@H](C)CN([C@H](C)CO)C(=O)c2cc(NS(=O)(=O)c3cn(C)cn3)ccc2O1	13	7
Cc1ccc(S(=O)(=O)Nc2ccc3c(c2)C(=O)N([C@H](C)CO)C[C@H](C)[C@@H](CN(C)C(=O)Nc2c(C)noc2C)O3)cc1	-5	-8
O=C(C[C@H]1CC[C@H]2[C@@H](COC[C@H](O)CN2S(=O)(=O)c2ccccc2)O1)NCc1ccc(-c2ccccc2)cc1	-30	-22
O=C(C[C@@H]1C[C@@H]2c3cc(NC(=O)C4CCOCC4)ccc3O[C@@H]2[C@H](CO)O1)NCc1ccncc1	16	20
C[C@H]1CN([C@@H](C)CO)C(=O)c2cccc(NC(=O)Nc3ccc(F)cc3)c2O[C@H]1CN(C)Cc1ccncc1	1	-3
CCC(=O)Nc1ccc2c(c1)C(=O)N(C)C[C@@H](OC)[C@H](C)CN(C(=O)Cc1ccccn1)[C@H](C)CO2	15	6
C[C@@H]1CN([C@@H](C)CO)C(=O)c2cc(C#CCN(C)C)cnc2O[C@H]1CN(C)C(=O)c1cnccn1	16	10
N#C[C@@H]1[C@H](c2ccc(C#CC3CC3)cc2)[C@@H](CO)N1S(=O)(=O)c1ccccc1	0	-2
Cc1noc(C)c1S(=O)(=O)Nc1ccc2c(c1)C(=O)N([C@@H](C)CO)C[C@@H](C)[C@H](CN(C)C(=O)Cc1ccccc1)OCCCC[C@H](C)O2	15	5
C[C@H](CO)N1C[C@H](C)[C@H](CN(C)C(=O)Nc2ccc(F)cc2)Oc2ncc(C#Cc3ccc(C(F)(F)F)cc3)cc2C1=O	?	nt
CO[C@H]1CN(C)C(=O)c2cc(NC(=O)Cc3ccccc3)ccc2OC[C@@H](C)N(C(=O)c2ccccc2F)C[C@H]1C	-10	-7
O=C(C[C@@H]1C[C@H]2c3cc(NC(=O)c4cccnc4)ccc3O[C@H]2[C@H](CO)O1)NCc1cccc(F)c1	8	6
O=C(Nc1ccc2c(c1)OCO2)N[C@@H]1CC[C@H](CC(=O)N2CCN(c3ccccc3)CC2)O[C@H]1CO	2	4
C[C@@H]1CN([C@H](C)CO)C(=O)c2cc(C#Cc3ccncc3)cnc2O[C@@H]1CN(C)S(=O)(=O)c1ccccc1F	3	-7
COc1ccc2c3c([nH]c2c1)[C@H](CO)N(Cc1ccncc1)CC31CN(C(=O)Cc2ccncc2)C1	5	4
COc1cccc(S(=O)(=O)N2[C@@H]3CNC[C@H]2C3c2ccc(-c3ccc(C(=O)N(C)C)cc3)cc2)c1 (some centres undefined)	20	18
C[C@@H]1CCCCO[C@@H](CN(C)S(C)(=O)=O)[C@@H](C)CN([C@H](C)CO)C(=O)c2cc(NS(=O)(=O)c3cn(C)cn3)ccc2O1	3	4
C[C@@H]1CN([C@H](C)CO)S(=O)(=O)c2ccc(-c3ccccc3F)cc2O[C@H]1CN(C)C(=O)C1CC1	-15	-3
CO[C@H]1CN(C)C(=O)c2cc(NS(=O)(=O)c3ccccc3)ccc2OC[C@@H](C)N(C(=O)NC(C)C)C[C@H]1C	18	7
Cc1ccc(S(=O)(=O)N(C)C[C@@H]2Oc3ccc(NS(C)(=O)=O)cc3C(=O)N([C@H](C)CO)C[C@@H]2C)cc1	-8	-15
CN(C)CCCNC(=O)C[C@H]1CC[C@@H]2[C@H](COc3ccc(NC(=O)NC4CCCC4)cc3C(=O)N2C)O1	7	-1
COCC(=O)N1C[C@@H](C)[C@@H](OC)CN(C)C(=O)c2cc(NC(=O)c3ccccc3)ccc2OC[C@H]1C	-3	-6
O=C(Nc1ccccc1)N1CCCCN2[C@H](C1)[C@@H](c1ccc(C3=CCCCC3)cc1)[C@@H]2CO	-23	-27
CO[C@@H]1CN(C)C(=O)c2cc(NC(=O)C3CCOCC3)ccc2OC[C@@H](C)N(C)C[C@H]1C	-3	-4
CO[C@@H]1CN(C)C(=O)c2ccc(NC(=O)c3ccccc3F)cc2OC[C@H](C)N(CC2CC2)C[C@H]1C	-12	-5
COCC(=O)N1[C@H](C#N)[C@H](c2ccc(-c3cccc(F)c3)cc2)[C@@H]1CO	-3	-6
CS(=O)(=O)Nc1ccc2c(c1)[C@@H]1C[C@@H](CC(=O)NC3CCCC3)O[C@H](CO)[C@@H]1O2	1	-9
C[C@H](CO)N1C[C@H](C)[C@H](CN(C)Cc2ccc(C(=O)Nc3ccccc3N)cc2)Oc2ccc(NC(=O)c3ccncc3)cc2CC1=O	-4	-10
C[C@@H]1CN([C@H](C)CO)S(=O)(=O)c2ccc(Br)cc2O[C@H]1CN(C)C(=O)c1cnccn1	11	10
COc1ccc(C#Cc2cnc3c(c2)C(=O)N([C@@H](C)CO)C[C@@H](C)[C@H](CN(C)C(=O)c2ccccc2F)O3)cc1	?	nt
CC(C)NC(=O)Nc1cccc2c1O[C@H](CN(C)C(=O)Nc1ccc3c(c1)OCO3)[C@@H](C)CN([C@@H](C)CO)C2=O	-3	7
CN1CCN(C(=O)C[C@@H]2CC[C@H](NC(=O)Nc3ccccc3F)[C@H](CO)O2)CC1	10	22
O=C(NC1CCCC1)N1CCCCN2[C@@H](CO)[C@@H](c3ccc(/C=C/c4ccccc4)cc3)[C@@H]2C1	?	nt
O=C(Nc1ccccc1)N1CCCCN2[C@H](CO)[C@@H](c3ccc(Br)cc3)[C@@H]2C1	-22	-17
COc1ccc(CN(C)C[C@H]2Oc3c(NS(=O)(=O)c4ccc(C)cc4)cccc3C(=O)N([C@@H](C)CO)C[C@H]2C)cc1	-13	-10
Cc1ccc(S(=O)(=O)N(C)C[C@H]2Oc3ccc(NS(C)(=O)=O)cc3CC(=O)N([C@H](C)CO)C[C@H]2C)cc1	-5	9
C[C@@H]1CN([C@H](C)CO)C(=O)c2cc(-c3cccc(C#N)c3)cnc2O[C@H]1CN(C)C(=O)C1CCCCC1	5	3
COc1ccc(NC(=O)N(C)C[C@@H]2Oc3c(NS(=O)(=O)c4ccc(C)cc4)cccc3C(=O)N([C@@H](C)CO)C[C@@H]2C)cc1	10	11
COCC(=O)Nc1ccc2c(c1)[C@H]1C[C@@H](CC(=O)O)O[C@H](CO)[C@H]1O2	12	6
CCNC(=O)C[C@H]1C=C[C@@H](NS(=O)(=O)c2ccc(F)cc2)[C@H](CO)O1	2	11
CCC(=O)N1C[C@H](O)COC[C@@H]2O[C@@H](CC(=O)NCC3CCCCC3)CC[C@H]21	9	-2
N#C[C@@H]1[C@H](c2ccc(C3=CCCC3)cc2)[C@H](CO)N1C(=O)C1CCCC1	4	14
CN(C)C(=O)C[C@H]1C[C@@H]2c3cc(NC(=O)Nc4ccc(F)cc4)ccc3O[C@@H]2[C@H](CO)O1	11	13
CCCNC(=O)C[C@H]1CC[C@H]2[C@H](COc3ccc(NC(=O)Cc4ccccc4)cc3C(=O)N2C)O1	15	11
C[C@H](CO)N1C[C@H](C)[C@@H](CN(C)CC2CCCCC2)Oc2ccc(NS(=O)(=O)c3ccccc3)cc2CC1=O	?	nt

Continuation.
SMILES	Vaccinia inh	Vaccinia inh Venus
C[C@H](CO)N1C[C@H](C)[C@@H](CN(C)Cc2ccncc2)OCc2ccccc2-c2ccccc2C1=O	13	1
COC(=O)[C@H]1[C@H](CO)[C@H]2Cn3c(ccc(C4=CCCC4)c3=O)[C@H]2N1C(=O)C1CCC1	0	-6
C/C=C/c1ccccc1[C@H]1[C@@H](CO)N(C(=O)Nc2cccc(F)c2)[C@H]1C#N	-30	-28
C[C@H](CO)N1C[C@H](C)[C@H](CN(C)Cc2ccc(F)cc2)Oc2ncc(-c3cc4ccccc4o3)cc2C1=O	?	nt
CO[C@@H]1CN(C)C(=O)c2ccc(NC(=O)Nc3cc(Cl)cc(Cl)c3)cc2OC[C@H](C)NC[C@@H]1C	?	nt
Cc1noc(C)c1S(=O)(=O)Nc1ccc2c(c1)CC(=O)N([C@@H](C)CO)C[C@H](C)[C@H](CN(C)Cc1ccc3c(c1)OCO3)O2	3	6
CN(C)CC(=O)N1[C@@H](C#N)[C@@H](c2ccccc2-c2ccccc2F)[C@@H]1CO	-7	-8
C[C@H]1CN([C@@H](C)CO)C(=O)Cc2cc(NC(=O)CCCN(C)C)ccc2O[C@H]1CN(C)Cc1ccc(Oc2ccccc2)cc1	-18	-13
C[C@H]1CN([C@@H](C)CO)C(=O)c2cc(/C=C/c3ccccc3)cnc2O[C@H]1CN(C)C(=O)NC1CCCCC1	-17	-7
CC(C)NC(=O)N(C)C[C@@H]1Oc2cc(Br)ccc2S(=O)(=O)N([C@@H](C)CO)C[C@@H]1C	6	-4
CN1c2ccc(-c3ccccc3F)cc2[C@H]2[C@H](CCN2S(=O)(=O)c2ccccc2F)[C@@H]1CO	-27	-24
COc1ccc2c3c(n(C)c2c1)[C@@H](CO)N(C(=O)Nc1c(C)noc1C)CC31CN(CC2CC2)C1	6	1

Shown as labelled records: four of the compounds above
Cc1noc(C)c1S(=O)(=O)Nc1ccc2c(c1)CC(=O)N([C@@H](C)CO)C[C@H](C)[C@H](CN(C)Cc1ccc3c(c1)OCO3)O2
  Vaccinia inh: 3
  Vaccinia inh Venus: 6
C[C@H](CO)N1C[C@H](C)[C@@H](CN(C)Cc2ccncc2)OCc2ccccc2-c2ccccc2C1=O
  Vaccinia inh: 13
  Vaccinia inh Venus: 1
C/C=C/c1ccccc1[C@H]1[C@@H](CO)N(C(=O)Nc2cccc(F)c2)[C@H]1C#N
  Vaccinia inh: -30
  Vaccinia inh Venus: -28
CN(C)CC(=O)N1[C@@H](C#N)[C@@H](c2ccccc2-c2ccccc2F)[C@@H]1CO
  Vaccinia inh: -7
  Vaccinia inh Venus: -8

Other results follow.
SMILES	Vaccinia inh	Vaccinia inh Venus
O=C(C[C@@H]1C[C@H]2c3cc(NC(=O)C4CCC4)ccc3O[C@H]2[C@@H](CO)O1)NCc1ccccc1F	8	2
CNC(=O)C[C@H]1CC[C@H]2[C@@H](COC[C@H](O)CN2C(=O)Nc2ccc(Cl)c(Cl)c2)O1	-24	-8
COc1ccc(CN(C)C[C@H]2Oc3ccc(NC(=O)NC4CCCCC4)cc3C(=O)N([C@@H](C)CO)C[C@@H]2C)cc1	16	9
COc1ccc(-c2ccc([C@@H]3[C@@H](CO)N4C(=O)CN(C(=O)C5CCCC5)C[C@H]34)cc2)cc1	-32	-29
Cc1noc(C)c1S(=O)(=O)Nc1ccc2c(c1)CC(=O)N([C@H](C)CO)C[C@H](C)[C@H](CN(C)S(=O)(=O)c1c(C)noc1C)O2	1	-4
C[C@H](CO)N1C[C@H](C)[C@H](CN(C)Cc2cccc(C(F)(F)F)c2)Oc2ncc(C#Cc3ccccc3)cc2C1=O	?	nt
COCCN(C[C@@H]1[C@@H](c2ccccc2)[C@H](CO)N1C(C)=O)C(=O)c1cccnc1	19	6

Entries of single compounds, looked up by structure. Order of values: Vaccinia inh | Vaccinia inh Venus
`COc1ccc(CN(C)C[C@H]2Oc3ccc(NC(=O)NC4CCCCC4)cc3C(=O)N([C@@H](C)CO)C[C@@H]2C)cc1` in the list: 16 | 9
`Cc1noc(C)c1S(=O)(=O)Nc1ccc2c(c1)CC(=O)N([C@H](C)CO)C[C@H](C)[C@H](CN(C)S(=O)(=O)c1c(C)noc1C)O2` in the list: 1 | -4
